Screening results from PubChem.
AID504770: growth inhibitors of E. coli YBA685 in a screen for V. cholerae RctB (chromosome II replication) inhibitors | E. coli YBA685 rctB-dependent plasmid, OD600 growth, 3 h; hits give low values | z-score (no concentration beside the values) | hit rate 0.27% among 130,000 | AID 504770;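 active = z-score under -2 on both plates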;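 note: wells of about 30 µL received 100 nL stock; score is relative to mean and SD of the test wells; the first replicate is given; strong numbers were not always called active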
CapD inh: inhibitors of Bacillus anthracis CapD enzyme | purified CapD enzyme, fluorescence intensity read-out; hits give low values; some hits fall short of the stated cut | z-score (test concentration not listed) | hit rate 0.23% among 140,000;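 active = z-score under -4 in either of two replicates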;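 note: stock transfer was 100 nL into about 40 µL; score is relative to mean and spread of the plate; one replicate is shown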
Starred values were filed as active, the others as inactive; i = inactive; / = no result given.

A first look:
SMILES	AID504770	CapD inh
Oc1c(C(Nc2nccs2)c2ccc(F)cc2)ccc2cccnc12 (stereo not given)	3.2	-0.22
O=C(OCCN1CCN(Cc2cc3ccccc3o2)CC1)N1CCN(c2ccc(F)cc2)CC1	/	0.65
Cc1cc(C)nc(SCc2ccccc2C(=O)O)n1	-1.4	/
CCC(C)NC(=O)c1ccc(CS(=O)(=O)Cc2cccc(C)c2)o1 (stereo not given)	0.85	0.58
O=C(Oc1ccccc1)Oc1ccc2ccc(=O)oc2c1	0.9	54
CCc1ccc(NC2=CC(=O)CC(c3ccco3)C2)cc1 (stereo not given)	-0.25	-0.32
CN(C(=O)COC(=O)C1(c2ccc(F)cc2)CCCC1)c1ccccc1	-0.2	0.66

All compounds of this part, from the first entry:
SMILES	AID504770	CapD inh
Oc1c(C(Nc2nccs2)c2ccc(F)cc2)ccc2cccnc12 (stereo not given)	3.2	-0.22
O=C(OCCN1CCN(Cc2cc3ccccc3o2)CC1)N1CCN(c2ccc(F)cc2)CC1	/	0.65
Cc1cc(C)nc(SCc2ccccc2C(=O)O)n1	-1.4	/
CCC(C)NC(=O)c1ccc(CS(=O)(=O)Cc2cccc(C)c2)o1 (stereo not given)	0.85	0.58
O=C(Oc1ccccc1)Oc1ccc2ccc(=O)oc2c1	0.9	54
CCc1ccc(NC2=CC(=O)CC(c3ccco3)C2)cc1 (stereo not given)	-0.25	-0.32
CN(C(=O)COC(=O)C1(c2ccc(F)cc2)CCCC1)c1ccccc1	-0.2	0.66
COc1cc(OC)c(CN2CCN(S(=O)(=O)c3ccc(F)cc3F)CC2)c(OC)c1	/	0.27
COc1ccc(CCN2C(=O)c3cccc4cc([N+](=O)[O-])cc(c34)C2=O)cc1OC	/	-0.17
O=C(C1CC1)N1CCc2cc(S(=O)(=O)NCc3ccccc3)ccc21	-0.5	0.05
Cc1ccc(-n2ncc3c(=O)[nH]c(SCC(=O)Nc4ccccc4C(F)(F)F)nc32)cc1	0.95	0.42
CCC1CCCCN1C(=O)CSCc1ccc(Cl)cc1 (stereo not given)	0.25	0.29
CCC(=O)Nc1nc2cc(Cl)c(C)cc2s1	-0.85	/
Cc1cc2c3c([nH]c2cc1S(=O)(=O)N1CCC(C)CC1)CCCC3=O	0.65	0.23
N/C(=N\S(=O)(=O)c1ccc(Cl)c(Cl)c1)c1ccccn1	-0.55	1.1
CCN(CC)C(=O)C1CCCN(c2ncnc3c2cnn3-c2ccc(OC)cc2)C1 (stereo not given)	/	5.5
COCc1c(C(=O)OCc2cc(=O)oc3cc(C)ccc23)oc2ccccc12	0.15	/
COC(=O)c1ccccc1NC(=O)/C(C#N)=C/c1ccc2noc(-c3ccccc3)c2c1	-0.6	/
CCc1nc2c(cnn2-c2ccccc2)c(=O)n1-c1ccc(Br)cc1	-0.8	/
N#CCCn1ncc(C#N)c1-n1cccc1	-1	-0.28
COc1ccc(-n2c3c(cc(C(=O)NCCc4ccc(OC)c(OC)c4)c2=O)C(=O)CC(C)(C)C3)cc1	/	1.9
OC(COc1ccc(Cl)c(Cl)c1)CN1CCN(c2ncnc3scc(-c4ccccc4)c23)CC1 (stereo not given)	/	-0.26
CN1/C(=C\C(=O)COC(=O)C2CCN(S(=O)(=O)c3ccc4c(c3)OCCO4)CC2)C(C)(C)c2ccccc21	1.4	/
CC(=O)N1CCc2cc(S(=O)(=O)CCC(=O)N3CCCC3)ccc21	1.6	-0.09
CCC(=O)NCC1(c2ccccc2)CCCC1	0.9	/
Cc1c(Cl)cccc1-n1c(SCC(=O)N2CCC(C(=O)O)CC2)nc2ccccc2c1=O	-1.4	/
CCOC(=O)CC1C(=O)NCCN1C(=O)COc1ccc(C(C)(C)C)cc1 (stereo not given)	-0.9	/
O=C(NC(O)C(=O)c1ccccc1)c1ccc(F)cc1 (stereo not given)	-0.45	/
c1ccc(OC2CN(C(c3ccccc3)c3ccccc3)C2)cc1	-0.45	-0.41
CCOC(=O)c1cnc(Nc2nc3ccccc3s2)nc1CSc1ncccn1	0.6	-0.28
COc1cc(OC)nc(-c2ccc(NC(=O)C(c3ccccc3)c3ccccc3)cc2)n1	/	1.6
Nc1nc2c([nH]c(=O)n2C2OC(CO)C(O)C2O)c(=O)[nH]1 (stereo not given)	/	-0.5
Cc1ccc(S(=O)(=O)CC(SC#N)c2ccccc2)cc1 (stereo not given)	-0.1	-0.57
CCn1c(SCCC(=O)Nc2ccccc2)nnc1-c1ccc(OC)cc1	-2.3	-0.13
C=C(C)Cc1c(C)[nH]c(=S)[nH]c1=O	/	0.04
CN(/N=C/c1ncc(C(F)(F)F)cc1Cl)C(=O)c1ccc(Cl)cc1	2	0.21
Cc1nsc(N)c1C(=O)OCC(=O)N1CCN(S(=O)(=O)c2ccc(Cl)cc2)CC1	0.25	/
Cc1cc(NC(=O)COC(=O)CCc2c[nH]c3ccccc23)no1	-2.1	/
COc1ccccc1CNC(=O)[C@@H]1CC(O)CN1C(=O)C12CC3CC(CC(C3)C1)C2 (stereo not given in full)	-0.75	/
CC(C(=O)N1CCN(C/C=C/c2ccccc2)CC1)c1ccc(Cl)cc1 (stereo not given)	/	-0.32
Cc1ccc(C)c(CN2CCNC2=O)c1	-0.45	-0.08
O=C(C1CCN(S(=O)(=O)c2ccccc2)CC1)N1CCC2(CC1)OCCO2	/	-0.32
NS(=O)(=O)c1ccc2nc(NC(=O)C3CCCCC3)sc2c1	0.05	i
O=C(Nc1c2c(nn1-c1cccc(Cl)c1)CS(=O)(=O)C2)c1ccc(S(=O)(=O)N2CCCC2)cc1	-0.5	0.24
CCOCCCn1c(SCc2ccccc2)nnc1-c1ccncc1	0.95	/
CC(C)(C)NC(=O)C1CC(=O)OC1(C)C (stereo not given)	0.4	/
C=C(C)c1cccc(C(C)(C)NC(=O)N2CCCC2)c1	1.4	/
Cc1ccc(S(=O)(=O)N(CC(O)CN2CCCCC2)c2ccccc2)cc1 (stereo not given)	-0.8	0.17
O=C1C2C(c3ccccc3)C=CC(c3ccccc3)C2C(=O)N1c1nccs1 (stereo not given)	-1.1	-0.98
CC1(C)CC(=O)C2=C(C1)Nc1ccccc1N(C1OC(=O)c3ccccc31)C2c1ccco1 (stereo not given)	-0.3	-0.92
Further structures follow:
SMILES	AID504770	CapD inh
CCOC(=O)Nc1ccc2c(CNCC(C)C)cc(=O)oc2c1	0.9	/
CCc1cc(=O)[nH]c(SCc2ccc(C)cc2)n1	2	-0.19
Clc1ccc(-n2cc(-c3ccccc3)c3c(N4CCC5(CC4)OCCO5)ncnc32)cc1	/	0.85
CCN(CCO)C(=S)Nc1ccccc1C	0	/
CCN1C(=O)CC(OC(C)=O)C1=O (stereo not given)	0.2	/
O=C(OCCCCN1C(=O)c2ccccc2C1=O)c1ccc(S(=O)(=O)N2CCCC2)cc1	0.7	/
COC(=O)c1ccc(Sc2ccc(F)cc2)c(N)c1	0.25	107
CCOc1cc(S(=O)(=O)N(CC)CC)c(OCC)cc1-n1cnnn1	0.1	/
O=C(Cc1ccsc1)OCN1C(=O)c2ccccc2C1=O	0.45	/
O=C(OCCN1C(=O)c2cccc3c(N4CCCCC4)ccc(c23)C1=O)c1ccc(S(=O)(=O)N2CCOCC2)cc1	/	0.52
Cc1ccc2nc(-c3ccccn3)cc(C(=O)O)c2c1	0.3	/
CCOC(=O)c1sc(CN2CCN(c3cccc(Cl)c3)CC2)nc1C	1	0.65
C=CCn1c(Cc2ccc(OC)cc2)nnc1SC(C)C(=O)Nc1ccc2c(c1)OCO2 (stereo not given)	0.1	/
N#Cc1c(N)nc(SCc2ccccc2)c(C#N)c1-c1cccs1	0	/
CS(=O)(=NC(=O)c1ccc2nnsc2c1)c1ccccc1 (stereo not given)	/	-0.23
CCOc1ccccc1C(=O)NCC(=O)N(C)Cc1cccnc1	-0.25	/
Nc1ccccc1OC(=O)C[n+]1ccccc1	-0.8	/
COc1ccc(-n2c(=O)/c(=C\c3ccccn3)s/c2=C(/C#N)C(=O)NC2CC2)cc1	-0.8	/
CCOc1ccc(NC(=O)C2CC(=O)NC(N3CCCCC3)=N2)cc1 (stereo not given)	-0.25	/
Cc1ccc2c(c1)c1c3n2CCN(C2CCO2)C3CCC1 (stereo not given)	0.8	2.4
Nc1nc(CSc2nnc(-c3cccc(Br)c3)n2C2CCCCC2)cs1	1.6	-0.44
CCCCOc1ccc(OCCNC(=O)C2CCC(=O)N2)cc1 (stereo not given)	-0.7	-0.21
Cn1nc(-c2ccc(S(=O)(=O)n3ccnc3)s2)cc1C(F)(F)F	-0.8	-0.39
Brc1ccc(-c2nnc3n2-c2ccccc2CC3)cc1	1.6	/
Cc1ccc2nc(-c3ccc(NC(=O)CCCC(=O)O)cc3)sc2c1	-0.55	119
C=C(C)Cn1c(=S)n(Cc2ccccc2)c2ccccc21	1	/
O=S(=O)(Nc1nc2ccccc2nc1NC1CCCC1)c1ccc(Cl)s1	0.2	/
O=C(NC(=S)n1nnc2ccccc21)c1ccccc1	-0.95	-0.35
CN(Cc1ccco1)C(=O)COc1cccc2c1OC(C)(C)C2	-0.25	/
CCOC(=O)C1C(c2ccc(F)cc2)C(C(=O)OCC)C(O)(C(F)(F)F)NC1(O)C(F)(F)F (stereo not given)	/	-0.49

Record cards (already shown). Values in the order: AID504770 | CapD inh
O=C(NC(=S)n1nnc2ccccc21)c1ccccc1 reads -0.95 | -0.35
CN(Cc1ccco1)C(=O)COc1cccc2c1OC(C)(C)C2 reads -0.25 | /
Cc1ccc2nc(-c3ccc(NC(=O)CCCC(=O)O)cc3)sc2c1 reads -0.55 | 119
CCCCOc1ccc(OCCNC(=O)C2CCC(=O)N2)cc1 (stereo not given) reads -0.7 | -0.21
Brc1ccc(-c2nnc3n2-c2ccccc2CC3)cc1 reads 1.6 | /

Later entries:
SMILES	AID504770	CapD inh
O=C(Nc1ccc(Cl)cc1C(F)(F)F)c1cc(S(=O)(=O)NCc2ccc3c(c2)OCO3)ccc1F	/	0.61
O=C(CC1OC(=O)c2ccccc21)Nc1cccc2cccnc12 (stereo not given)	0.1	/
CCOC(=O)c1cc(-c2ccc(OC)c(S(=O)(=O)N(C)c3ccc(OCC)cc3)c2)on1	0.55	0.02
CSc1nnc(SC)n1CCNC(=O)c1cccc(Cl)c1	-0.15	-0.74
C=CCN1C(=O)/C(=C/C=c2\c3cccc4cccc(c43)n2CC)SC1=S	1.9	69
CCNc1oc(-c2ccc(F)cc2)nc1S(=O)(=O)c1ccc(Cl)cc1	-0.5	1.1
CCOc1cc(/C=c2\sc3nc4ccccc4n3c2=O)ccc1OCc1ccccc1	/	-0.12
CCOC(=O)C(C)Oc1cc(OC(C)C(=O)OCC)c2c3c(c(=O)oc2c1)CCCC3 (stereo not given)	/	41
CC(C)(C)c1ccc(-c2nc(O)c(CC(=O)O)s2)cc1	-1.1	1.6
CCOCN(C(=O)Cn1c(-c2ccco2)nc2ccccc21)c1c(C)cccc1CC	-0.45	7.6
O=C(NCCN1CCc2ccccc2C1)C1CCN(S(=O)(=O)N2CCCC2)CC1	1.4	0.53
O=C(Cc1csc2nc(-c3ccccc3)cn12)NC1CCCC1	-1	0.22
Cc1ccc(CCOC(=O)NCCc2cccc(Cl)c2)cc1	/	-1.1
O=C(CSc1n[nH]c(=O)n1Cc1ccco1)c1ccc2c(c1)OCCO2	-0.75	-1.4
Cc1ccc2nc(C(O)C(O)c3nc4ccc(C)cc4[nH]3)[nH]c2c1 (stereo not given)	-0.05	2.7
CSc1nn2c(C(F)(F)F)cc(C(F)(F)F)nc2c1C(=O)O	0.55	-0.055
CC1(C)CC(CCC(=O)Nc2ccc(S(=O)(=O)Nc3nccs3)cc2)C(=O)O1 (stereo not given)	-0.5	-0.15
O=C(COC(=O)C12CC3CC(CC(C3)C1)C2)c1ccc(F)cc1	-0.55	0.68
CCS(=O)(=O)N1CCN(C2CCCCCCC2)CC1	-0.85	/
N#Cc1ccc2ccn(CC(N)=O)c2c1	-2.6	/
O=C(CCCn1c(SCc2cc(=O)n3cc(Cl)ccc3n2)nc2ccccc2c1=O)NCCc1ccccc1	/	3.1
Cc1c(N2CCCC2)cc2c(c1-n1cccc1)C(C)(C)CC2(C)C	-0.25	1
CN(C)CN1C(=O)c2ccccc2C1=O	0.85	0.12
COc1ccc(OC)c(CNS(=O)(=O)c2cccc(F)c2)c1	/	-0.75
CC1(C)CC(=O)c2sc(NC(=O)/C=C/c3ccccc3)nc2C1	0.85	0.21
O=C(CC(CC(=O)C1CC1)c1ccc(Br)cc1)NCC1COc2ccccc2O1 (stereo not given)	/	0.15
Cc1ccc2c(c1)-c1nc3c(C)cccc3cc1C2=Nc1ccccc1	/	0.33
COc1cc(Cl)c(C)cc1NC(=O)c1cnc(C)cn1	-0.8	-1.2
CN(C)N1C(=O)CC(Nc2ccc(F)cc2)C1=O (stereo not given)	-0.15	0.29
Cc1ccc(C)c(NC(=O)C(C)n2sc3ccccc3c2=O)c1 (stereo not given)	-0.25	0.08
CSc1cccc(NC(=O)C2CCN(S(=O)(=O)c3cnc[nH]3)CC2)c1	1.6	-0.31
CC(C)CN(C(=O)COc1ccc(F)cc1)C1CCS(=O)(=O)C1 (stereo not given)	-0.5	/
N=c1oc2ccc3ccccc3c2cc1C(=O)Nc1ccccc1	-0.95	34
CCc1ccc(NC(=O)CSC2=C(C#N)C(c3ccccc3Cl)C(C(=O)OC)=C(C)N2)cc1 (stereo not given)	/	0.05
COc1ccc(N=Cc2cn(-c3ccccc3)nc2-c2cccs2)cc1	2.3	-1.1
O=S(=O)(c1ccccc1)n1ccc(-c2cnc3cc(Cl)c(Cl)cc3n2)c1	-0.25	1
CCOC(=O)Cc1nc(-c2ccncc2)n[nH]1	-0.7	/
CC1(C)CC(C(N)=O)C(C)(C)N1 (stereo not given)	-0.25	0.33
CCCOC(=O)C1=C(C)N(C)C(=O)NC1c1cc2c(cc1Br)OCO2 (stereo not given)	/	-0.24
